PrP UTR inh – inhibition of PrP 5' UTR reporter expression. cell-based PrP 5' UTR mRNA reporter, plate reader. inhibition, % (no concentration beside the values). actives 0.35% (n = 340,000). AID 488862;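 active = every replicate at 50% or more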;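 note: 0 = median of the neutral control wells; tested in H4 reporter cells; numbers are from one replicate; inactives centre near -14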
ugtP null kill – growth inhibition of S. aureus ugtP deletion strain | S. aureus RN4220 ugtP deletion, OD600 growth, 16 h; some inactives read as strong as hits | growth inhibition, % (no concentration beside the values) | actives 0.54% (n = 330,000);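 active = z-score under -3 and OD600 up to 0.15 on both plates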;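 note: plate controls were untreated wells for no effect and antibiotic for full effect; wells of about 80 µL received 100 nL stock; the first replicate is given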
Mtb hypoxia rep – inhibitors of hypoxia-regulated fluorescent reporter in Mycobacterium tuberculosis; actives 0.1% (n = 300,000); M. tuberculosis hypoxia-regulated fluorescent reporter, fluorescence; fluorescence inhibition, % (no concentration beside the values);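 active = 35 to 45% if threefold the growth effect, above 45% if 1.5-fold the growth effect; inactive = the rest, general growth blockers included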;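 note: wells of about 50 µL received 100 nL stock; 0% = vehicle wells and 100% = reference inhibitor wells; whole bacteria with a GFP reporter of the hypoxia response; strong numbers were not always called active; many hits fall short of the cut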
Autofluor counter – compound fluorescence in toxin protease inhibitor counterscreen; compound autofluorescence counterscreen, microsphere flow cytometry; stronger effect = higher value; fluorescence intensity (test concentration not listed); actives 3.1% (n = 360,000); AID 624483;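 active = at least 3 SD above the mean of all compounds, about 16000 in these data; inconclusive = too few beads counted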;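 note: 100 nL of 1 mM stock went into each well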
Sa RN4220 lethal – S. aureus RN4220 growth inhibition. AID 1259311. OD600, 16 h. actives 0.33% (n = 330,000). inhibition, % (no concentration beside the values);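 active = z-score of -3 or lower and OD600 up to 0.18 on both plates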;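 note: plate controls were untreated cells for no effect and reference antibiotic for full effect; stock transfer was 100 nL into about 80 µL; one replicate is shown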
BJeLR lethal – BJeLR cell viability loss; BJeLR (HRASV12) viability, CellTiter-Glo ATP luminescence, 48 h; reference of the scale not given here; inhibition, % (no concentration beside the values); actives 0.17% (n = 300,000); AID 1554;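 active = replicate mean above 50%; inconclusive = above 50% but judged a plate artefact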;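 note: 50 nL library stock added to about 25 µL; numbers are from one replicate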
Mtb hypoxia rep growth – further read-out of Mtb hypoxia rep, marked with its call; growth inhibition, %; measured here: M. tuberculosis growth (absorbance);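 0% = vehicle and 100% = reference antibiotic; read after six days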
An asterisk follows results filed as active; ? = inconclusive; nt = not tested or not shown.

Letters: A = PrP UTR inh; B = ugtP null kill; C = Mtb hypoxia rep; D = Mtb hypoxia rep growth; E = Autofluor counter; F = Sa RN4220 lethal; G = BJeLR lethal
O=C(CNC(=O)c1ccccc1)NN=Cc1ccc([N+](=O)[O-])o1
  A = nt | B = 2 | C = 12 | D = 23 | E = nt | F = 6.0 | G = nt

CC(=O)Oc1ccccc1N(C(C)=O)S(=O)(=O)c1ccc(C)cc1
  A = -13 | B = 1 | C = -4 | D = -1 | E = 2913 | F = 5.4 | G = -2

CC(C)Nc1nc(Cl)nc(NC(C)C)n1
  A = -24 | B = 11 | C = -7 | D = 1 | E = 2622 | F = 5.5 | G = -10

CC(NC(=S)Nc1ccc(S(=O)(=O)N2CCOCC2)cc1)C1CC2CCC1C2 (stereo unspecified)
  A = 3 | B = -28 | C = -9 | D = 16 | E = 2397 | F = -3.3 | G = -10

Cc1cc(=O)oc2c1ccc1ccccc12
  A = -18 | B = 7 | C = -5 | D = 3 | E = 3639 | F = 3.7 | G = -4

COc1ccc(S(=O)(=O)N2CCCCCC2)cc1N(C)S(=O)(=O)c1ccccc1
  A = -7 | B = -4 | C = -2 | D = 4 | E = 2005 | F = 6.1 | G = 0

O=c1c(C/C=C/c2ccccc2)c(O)nc2n1CCCS2
  A = -12 | B = 9 | C = 5 | D = -6 | E = 8076 | F = 0.6 | G = 2

COc1cccc(NC(=O)C2CC2)c1
  A = -6 | B = 2 | C = 14 | D = 3 | E = 4006 | F = 6.1 | G = 13

CCOC(=O)COc1cccc2c(=O)n(CC(=O)N3CCN(C(=O)OCC)CC3)ccc12
  A = -17 | B = 6 | C = 7 | D = 8 | E = 4273 | F = -4.0 | G = -1

CC1CCCC(C)N1N=Cc1ccc(C#N)cc1 (stereo unspecified)
  A = nt | B = -15 | C = -10 | D = 6 | E = nt | F = -1.0 | G = nt

O=[N+]([O-])c1cc([N+](=O)[O-])c(Oc2ccc(Cl)c3cccnc23)cc1NN1CCCCC1
  A = -31 | B = 6 | C = 5 | D = 12 | E = 4101 | F = 2.0 | G = -9

O=C1CCC=CCC(CC(=O)N(CCO)Cc2ccccc2)C(=O)NCC(c2ccccc2)O1 (stereo unspecified)
  A = nt | B = 5 | C = 9 | D = 14 | E = nt | F = 5.5 | G = nt

CCOc1ccccc1C(=O)NC(C(=O)Nc1ccccc1N1CCOCC1)C(C)C (stereo unspecified)
  A = -8 | B = 9 | C = 4 | D = 4 | E = 15943 | F = 1.1 | G = -1

CC(=O)Nc1ccc(S(=O)(=O)NCCSCc2ccccc2Cl)cc1
  A = -26 | B = 10 | C = 10 | D = 2 | E = 2932 | F = 3.2 | G = 13

Clc1ccc(-c2nnc(N3CCOCC3)o2)cc1
  A = -36 | B = -12 | C = 18 | D = 11 | E = nt | F = 5.3 | G = 4

Cc1cc(C(=O)NCC2CCCO2)sc1C (stereo unspecified)
  A = -27 | B = 7 | C = 12 | D = 2 | E = ? | F = 2.3 | G = nt

O=c1[nH]c(=O)n(CCc2ccc(F)cc2)c(O)c1C=NCCCN1CCOCC1
  A = -4 | B = -7 | C = 6 | D = 8 | E = 2354 | F = -13 | G = -9

COc1cc(/C=C2/CCC/C(=C\c3cc(O)c(OC)c(Cl)c3)C2=O)cc(Cl)c1O
  A = -39 | B = 0 | C = 16 | D = 18 | E = 4458 | F = 6.3 | G = 1

C/C(=N\NC(=O)C12CCC(C)(C(=O)O1)C2(C)C)c1ccccc1O (stereo unspecified)
  A = -7 | B = nt | C = nt | D = nt | E = 3335 | F = nt | G = 9

CCOC(=O)C(C(=O)OCC)C1N=C(N)N=C2Oc3ccccc3N21 (stereo unspecified)
  A = -43 | B = 16 | C = 3 | D = 2 | E = 7367 | F = 9.3 | G = 3

COc1ccc(NCc2nnc(SCC(=O)Nc3ccc(OC)cc3)n2C)cc1
  A = -21 | B = -3 | C = -7 | D = -4 | E = 2019 | F = 1.7 | G = -15

CC(C)(C)NC(=O)[C@]1(C)CCC[C@@]2(C)C3CC[C@@]4(C)C[C@]3(CCC21)CC4=O (stereo partly specified)
  A = -10 | B = 5 | C = 18 | D = 9 | E = 4227 | F = 10 | G = nt

COc1ccc(NC(=S)N(CCCN2CCOCC2)Cc2cn(C)c3ccccc23)cc1
  A = 3 | B = 0 | C = 0 | D = -2 | E = 2543 | F = -4.1 | G = 10

OC1/C(=C/c2ccc(Cl)cc2Cl)N2CCC1CC2 (stereo unspecified)
  A = 30 | B = 3 | C = 4 | D = 5 | E = 4594 | F = 5.3 | G = -3

CN(Cc1ccncc1)C1CC(=O)N(c2ccc(F)cc2)C1=O (stereo unspecified)
  A = -23 | B = 8 | C = 14 | D = 4 | E = 2083 | F = 3.7 | G = -7

CC1(C)COC(c2cc3c(cc2Br)OCO3)OC1
  A = 1 | B = -2 | C = 2 | D = 20 | E = 3737 | F = 6.8 | G = nt

O=C(NCCCN1CCOCC1)/C(=C/c1cccnc1)NC(=O)c1ccccc1
  A = -38 | B = 3 | C = 9 | D = -3 | E = 4200 | F = 0.6 | G = 7

COC(=O)COc1ccc(S(=O)(=O)N2CCCCCC2)cc1
  A = -20 | B = -2 | C = 14 | D = 4 | E = 4706 | F = 7.4 | G = -8

C=CCn1c(N=Cc2ccc(N(C)C)cc2)nc2ccccc21
  A = nt | B = 8 | C = 5 | D = -1 | E = nt | F = 6.8 | G = nt

CN(C(=O)CSc1nnc(Cc2ccccc2F)n1N)C1CCCCC1
  A = -4 | B = 2 | C = 6 | D = 4 | E = 4066 | F = 1.4 | G = nt

Twelve structures from above, sorted by SMILES length, high to low:
Letters: A = PrP UTR inh; B = ugtP null kill; C = Mtb hypoxia rep; D = Mtb hypoxia rep growth; E = Autofluor counter; F = Sa RN4220 lethal; G = BJeLR lethal
O=[N+]([O-])c1cc([N+](=O)[O-])c(Oc2ccc(Cl)c3cccnc23)cc1NN1CCCCC1
  A = -31 | B = 6 | C = 5 | D = 12 | E = 4101 | F = 2.0 | G = -9

CCOC(=O)COc1cccc2c(=O)n(CC(=O)N3CCN(C(=O)OCC)CC3)ccc12
  A = -17 | B = 6 | C = 7 | D = 8 | E = 4273 | F = -4.0 | G = -1

COc1ccc(S(=O)(=O)N2CCCCCC2)cc1N(C)S(=O)(=O)c1ccccc1
  A = -7 | B = -4 | C = -2 | D = 4 | E = 2005 | F = 6.1 | G = 0

O=c1[nH]c(=O)n(CCc2ccc(F)cc2)c(O)c1C=NCCCN1CCOCC1
  A = -4 | B = -7 | C = 6 | D = 8 | E = 2354 | F = -13 | G = -9

CCOc1ccccc1C(=O)NC(C(=O)Nc1ccccc1N1CCOCC1)C(C)C (stereo unspecified)
  A = -8 | B = 9 | C = 4 | D = 4 | E = 15943 | F = 1.1 | G = -1

O=C(NCCCN1CCOCC1)/C(=C/c1cccnc1)NC(=O)c1ccccc1
  A = -38 | B = 3 | C = 9 | D = -3 | E = 4200 | F = 0.6 | G = 7

CC(=O)Oc1ccccc1N(C(C)=O)S(=O)(=O)c1ccc(C)cc1
  A = -13 | B = 1 | C = -4 | D = -1 | E = 2913 | F = 5.4 | G = -2

CCOC(=O)C(C(=O)OCC)C1N=C(N)N=C2Oc3ccccc3N21 (stereo unspecified)
  A = -43 | B = 16 | C = 3 | D = 2 | E = 7367 | F = 9.3 | G = 3

CN(Cc1ccncc1)C1CC(=O)N(c2ccc(F)cc2)C1=O (stereo unspecified)
  A = -23 | B = 8 | C = 14 | D = 4 | E = 2083 | F = 3.7 | G = -7

O=c1c(C/C=C/c2ccccc2)c(O)nc2n1CCCS2
  A = -12 | B = 9 | C = 5 | D = -6 | E = 8076 | F = 0.6 | G = 2

CC(C)Nc1nc(Cl)nc(NC(C)C)n1
  A = -24 | B = 11 | C = -7 | D = 1 | E = 2622 | F = 5.5 | G = -10

Cc1cc(C(=O)NCC2CCCO2)sc1C (stereo unspecified)
  A = -27 | B = 7 | C = 12 | D = 2 | E = ? | F = 2.3 | G = nt

Next section:
Letters: A = PrP UTR inh; B = ugtP null kill; C = Mtb hypoxia rep; D = Mtb hypoxia rep growth; E = Autofluor counter; F = Sa RN4220 lethal; G = BJeLR lethal
CC(=O)[C@@]1(O)CC[C@H]2[C@@H]3CCC4=CC(=O)CC[C@]4(C)[C@H]3[C@@H](O)C[C@@]21C
  A = 5 | B = nt | C = nt | D = nt | E = 4700 | F = nt | G = -7

COc1ccc(CCC(=O)N2c3ccccc3CC2C)cc1 (stereo unspecified)
  A = -18 | B = 12 | C = 5 | D = 6 | E = 11082 | F = 12 | G = -1

CC(=NO)C(C)(C)Nc1cccc(Br)c1
  A = nt | B = -3 | C = 7 | D = 5 | E = nt | F = 4.6 | G = nt

CN1CCN(CC(=O)NC2CCCCC2)CC1
  A = -29 | B = 8 | C = 11 | D = 15 | E = 15793 | F = 4.6 | G = -1

Cc1nnc(SCC(=O)NNC(=O)c2ccco2)n1-c1cccc(Cl)c1
  A = -11 | B = 6 | C = 5 | D = 0 | E = 4662 | F = 1.4 | G = 2

COC(=O)CCCC(=O)N1CCCC(N(C)CCc2ccccc2)C1 (stereo unspecified)
  A = -22 | B = 5 | C = -7 | D = -2 | E = 3227 | F = 3.2 | G = 4

Cc1ccc(/C=C2\SC(=S)N(CCCC(=O)N3CCOCC3)C2=O)cc1
  A = -13 | B = 6 | C = 13 | D = 12 | E = 4791 | F = 0.8 | G = 89*

CC1CN(CCOCCSc2ccc(Cl)cc2)CC(C)O1 (stereo unspecified)
  A = -11 | B = 4 | C = 14 | D = 3 | E = 4267 | F = 8.1 | G = 1

CCCS(=O)(=O)c1nc(S(=O)(=O)c2ccc(C)cc2)c(NCc2ccco2)s1
  A = -7 | B = 0 | C = -10 | D = -3 | E = 2518 | F = 4.5 | G = -17

CC(=O)N/C(=N/c1nc(C)cc(C)n1)Nc1ccc(Cl)cc1Cl
  A = nt | B = 14 | C = 5 | D = 9 | E = nt | F = 0.6 | G = nt

CCc1c(O)nc(SCC(=O)Nc2nc3ccccc3s2)n(-c2ccc(C)cc2)c1=O
  A = -15 | B = 3 | C = 7 | D = -1 | E = 4036 | F = 11 | G = -3

CC1(c2cccc(Br)c2)NC(=O)N(CC(=O)Nc2ccc3c(c2)OCCO3)C1=O (stereo unspecified)
  A = -9 | B = -12 | C = -10 | D = 3 | E = 3841 | F = 1.1 | G = nt

COc1ccc(C(=O)OCc2c(C)noc2C)cc1
  A = -26 | B = -14 | C = -2 | D = -9 | E = 3987 | F = -1.0 | G = -2

CCOc1ccc(-c2nn3c(-c4ccc(F)cc4)nnc3s2)cc1
  A = -13 | B = -13 | C = -1 | D = -14 | E = 8137 | F = 1.1 | G = -5

CCOC(=O)c1cnc2c(cnn2C)c1NCCC(O)C(F)(F)F (stereo unspecified)
  A = -11 | B = 6 | C = 0 | D = 2 | E = 21233* | F = 3.9 | G = 7

Cc1ccc(NC2CCCN(C(=O)c3ccc(-n4ccnc4)cc3)C2)cc1C (stereo unspecified)
  A = -11 | B = 4 | C = 4 | D = -5 | E = 6153 | F = 2.1 | G = 0

CCOc1ccccc1C(=O)NN=Cc1c[nH]c2ccccc12
  A = nt | B = 7 | C = 16 | D = 9 | E = nt | F = 3.2 | G = nt

CCNC(=S)NNC(=O)c1cc(-c2cccc(OC)c2)nc2ccccc12
  A = -30 | B = -4 | C = 7 | D = 7 | E = 2082 | F = 5.8 | G = 10

CCC1CCCCN1C(=O)CCS(=O)(=O)c1ccc2c(c1)CCN2C(C)=O (stereo unspecified)
  A = -16 | B = 1 | C = -1 | D = -6 | E = 4457 | F = -0.5 | G = -11

Cc1cc(C)c(S(=O)(=O)N(C)c2ccccc2)c(C)c1
  A = -13 | B = 26 | C = 6 | D = 10 | E = 2371 | F = 8.0 | G = -17

c1coc(-c2nnc3sc(C4CCCCC4)nn23)c1
  A = 0 | B = -3 | C = 5 | D = 3 | E = 8805 | F = 5.3 | G = 9

CCN(CC)S(=O)(=O)c1ccc(C(=O)N2CCN(c3ncccn3)CC2)cc1
  A = -17 | B = 0 | C = 5 | D = 4 | E = 3642 | F = 5.5 | G = 1

Cc1ccc(C(=O)COC(=O)c2ccc(O)cc2)cc1
  A = -50 | B = 2 | C = 10 | D = 5 | E = 3505 | F = 11 | G = 4

O=C(CCC(=O)N1CCN(C2CCCC2)CC1)Nc1nnc(C(F)(F)F)s1
  A = -8 | B = -5 | C = 17 | D = 9 | E = 3459 | F = -8.0 | G = -7

Cc1cc(=O)n2nc(N3CCCC(C(=O)NCc4cccc(Br)c4)C3)sc2n1 (stereo unspecified)
  A = -5 | B = 2 | C = 6 | D = 17 | E = 5320 | F = 0.2 | G = 1

CC1CCc2sc(C(=O)NCC(c3ccco3)N3CCCCC3)cc2C1 (stereo unspecified)
  A = 3 | B = 10 | C = 4 | D = 11 | E = 3839 | F = 2.0 | G = nt
